Screens: PubChem, National Center for Advancing Translational Sciences (NCATS)
YjeE inh: inhibitors of E. coli YjeE (TsaE). Potency, µM. P0AF67. 71,000 compounds, 0.05% hits. purified YjeE, fluorescence polarisation of a bound ADP probe; active = well fitted falling curve; inconclusive = weaker or top-dose-only fall, or a rising curve; inactive = flat or poorly fitted curve;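 also: top concentration of the series not given in the record; excess ADP was the control for the full effect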
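Purified YjeE (10 uM) with BODIPY Texas Red-labeled ADP probe (2 uM); compounds pin-transferred, 15 min at room temperature. Binding inhibition read as decreased fluorescence polarization; ADP titration as control.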
Bst PK mod: modulators of Bacillus stearothermophilus pyruvate kinase. Potency, µM. 51,000 compounds, 1.2% hits. partly purified Bacillus stearothermophilus pyruvate kinase, luminescence ATP production; ribose 5-phosphate activator present at AC10. AID 361; in the data active means potency below about 11 µM; inconclusive means mostly about 12 µM to 25 µM; inactive means weaker than that;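 the screen sought inhibitors and activators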;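 also: potency is read from the fitted curve at half-maximal effect; scaled between full activation by ribose 5 phosphate and full inhibition by luteolin; about four in five hits inhibit and the cells do not say which; series up to 57 µM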
* marks the source's active call; other numbers are inactive results; i = inactive; ? = inconclusive; . = no result given.

Every second line gives: YjeE inh	Bst PK mod
1: COc1ccc(C)cc1S(=O)(=O)N1CCCCC1
→ i	>57
2: C=CCSC1=C(C#N)C(c2ccccc2OCC)C(C#N)C(=O)N1 (configuration not stated)
→ i	>57
3: COCCN(CCOC)c1nc(C)nc2c1nc(-c1ccccc1)n2CCN1CCCC1
→ i	.
4: Nc1c(C(=O)c2ccc(F)cc2)oc2ccccc12
→ i	i
5: Cc1nnc(NC(=O)CSc2nnc(-c3ccc(S(=O)(=O)N4CCCC4)cc3)n2C)s1
→ i	>57
6: COC(=O)C1(C#N)C(c2ccccc2)C1(C(=O)OC)C(=O)OC (configuration not stated)
→ i	.
7: CCCS(=O)(=O)N1CCCC(C(=O)NCCN2CCOCC2)C1 (configuration not stated)
→ i	>57
8: Cc1cc(NC(=O)CSc2nnc(COc3cccc(C)c3C)n2Cc2ccco2)no1
→ i	>57
9: O=C(CSc1nnc2scc(-c3ccccc3)n12)c1ccc2c(c1)OCCO2
→ i	.
10: COc1cccc(-c2nccc(NCc3ccccc3)n2)c1
→ i	.
11: COc1ccc(CC(=O)NC(CC(=O)O)c2ccc(OC)cc2)cc1 (configuration not stated)
→ i	>57
12: Cc1ccc(OCC(=O)Nc2ccc3c(c2)nc2n3CCOC2)cc1
→ i	>57
13: S=c1[nH]nc(C23CC4CC(CC(C4)C2)C3)n1Cc1ccco1
→ i	>57
14: CC[C@@H]1CN2CCc3cc(OC)c(OC)cc3[C@H]2C[C@@H]1C[C@H]1NCCc2cc(OC)c(OC)cc21
→ i	.
15: O=S(=O)(NCCCN1CCN(c2ccccc2F)CC1)c1cccc2cccnc12
→ i	.
16: COc1cccc(N2C(=O)CC(N3CCN(S(=O)(=O)c4ccccc4)CC3)C2=O)c1 (configuration not stated)
→ i	>57
17: COC(=O)c1ccc(CSc2nc(-c3ccco3)cc(C(F)(F)F)n2)o1
→ i	>57
18: COc1cccc(N2CCN(C3CC(=O)N(c4cccc(Cl)c4)C3=O)CC2)c1 (configuration not stated)
→ .	>25.6
19: Cc1cc(=O)cc(C)n1-c1ccccc1N1CCOCC1
→ i	i
20: Cc1cccc(NC(=O)c2ccc(S(=O)(=O)N(C)C)cc2)n1
→ i	>57

Values in list order from the entries so far.
Bst PK mod for nos. 8 to 13, in order: >57, ., ., >57, >57, >57
YjeE inh for nos. 8 to 13, in order: i, i, i, i, i, i

Continuation.
Every second line gives: YjeE inh	Bst PK mod
21: C=CCNC(=O)C1CCN(S(C)(=O)=O)CC1
→ i	>57
22: CCOc1ccc(/C=c2\sc3nc(-c4ccco4)nn3c2=O)cc1OCC
→ i	>57
23: CC1(C)CC(=O)C(/C=N/c2ncccc2C(=O)O)=C(O)C1
→ i	>57
24: Cc1cc(C)c2c(CN3CCN(Cc4ccc5c(c4)OCO5)CC3)cc(=O)oc2c1
→ i	>57
25: O=C(NCC(=O)N1CCCC1C(=O)O)OC1CCCCC1 (configuration not stated)
→ i	>57
26: O=C(c1ccc(OCCN2CCCCC2)cc1)c1c(-c2ccc(O)cc2)sc2cc(O)ccc12
→ i	.
27: Cc1[nH]c(=O)[nH]c(=O)c1S(=O)(=O)NCCOC12CC3CC(CC(C3)C1)C2
→ i	>57
28: Cc1cccc(Cl)c1OCCCCn1ccnc1
→ i	?
29: CCN(CC)C(=O)CSc1nc2sc(C)c(C)c2c(=O)[nH]1
→ i	>57
30: Cc1nnc(SCC(=O)N2CCC(Cc3ccccc3)CC2)n(N)c1=O
→ i	>57
31: O=C(NCC(c1cccnc1)N1CCOCC1)C1CCCCC1 (configuration not stated)
→ i	>57
32: Cc1cnc(NC(=O)CSc2nc3ccccc3c(=O)[nH]2)s1
→ i	>57
33: CCOc1ccc2nc(N3CCOCC3)nc(C)c2c1
→ i	i
34: COc1cc(OC)nc(NC(=O)NS(=O)(=O)c2ccc(OC(F)(F)F)cc2)n1
→ i	>57
35: Cc1cc(C)nc(Nc2nc(=O)c3ccccc3s2)n1
→ i	.
36: COC(=O)C1=C(N)Oc2cc(C)n(C)c(=O)c2C1c1ccc(Cl)c(Cl)c1 (configuration not stated)
→ i	>57
37: COC(=O)c1cc(Cl)c(NC(=O)c2ccco2)cc1OC
→ i	>11.4
38: CCOC(=O)Cc1nnc(NC(=O)c2ccccc2OCC)s1
→ i	.
39: O=C(NCc1ccco1)c1ccc(S(=O)(=O)N2CCCc3ccccc32)cc1
→ i	.
40: COCCNC(=O)COc1ccc(Nc2ccccc2)cc1
→ i	>57
41: COc1ccc2c(Cl)c(-c3nnco3)sc2c1
→ i	>57
42: CC1Cc2ccccc2N1C(=O)CCNS(=O)(=O)c1ccc2c(c1)CCC(=O)N2 (configuration not stated)
→ i	>57
43: CCOC(=O)c1ccccc1NCN1C(=O)CSC1=O
→ i	.
44: CN[C@H](CC(=O)O)C(=O)O
→ i	.
45: O=C(NCC1COc2ccccc2O1)c1ccc(Cl)cc1 (configuration not stated)
→ i	>57
46: COc1ccc(Oc2c(-c3ccc(O)cc3O)n[nH]c2C)cc1
→ i	>57
47: Cn1c(=O)c2nc(Cl)n(Cc3ccc(Cl)cc3Cl)c2n(C)c1=O
→ i	>57
48: O=C(NCc1cccnc1)C1CCCN(S(=O)(=O)c2ccccc2)C1 (configuration not stated)
→ i	>57
49: O=C(O)CCCC(=O)Nc1ccc(Cl)c(Cl)c1
→ i	.
50: CCOC(=O)c1cc(-c2cccs2)nc2onc(C)c12
→ i	>57
51: CN(CCC#N)C(=O)COC(=O)c1ccc(Cl)c(S(N)(=O)=O)c1
→ i	>57
52: CCOC(=O)C(C(=O)OCC)C(=O)c1cc(OC)c(OC)c(OC)c1
→ i	>57
53: CC(C)NC[C@H](O)COc1ccc(CC(N)=O)cc1
→ i	.
54: CN(Cc1cc(=O)[nH]c2ccccc12)C(=O)c1ccccc1
→ i	>57
55: CCSc1nc2c(c(=O)[nH]c(=O)n2C)n1C/C=C(/C)Cl
→ i	>57
56: CC(C)[C@@H](CC(=O)N[C@@H]1CCCC[C@H]1C(=O)N[C@H](CC(=O)N[C@@H](CCC(=O)O)CC(=O)O)Cc1ccccc1)NC(=O)C[C@H](Cc1ccccc1)NC(=O)[C@@H]1CNCC[C@H]1N
→ i	.
57: COc1ccccc1OCCCn1c(=O)sc2ccccc21
→ i	.
58: Cc1c(C(Nc2ccccn2)c2ccc(Cl)cc2)c(=O)n(-c2ccccc2)n1C (configuration not stated)
→ i	>57
59: c1ccc2c(c1)ccc1nnc(-c3ccc4c(c3)OCO4)n12
→ i	.
60: COc1ccc(-c2cc(C(=O)OC3CCOC3=O)c3ccccc3n2)cc1OC (configuration not stated)
→ i	.
61: Cn1cc(NC(=O)c2cc(NC(=O)c3cc(NC=O)cn3C)cn2C)cc1C(=O)NCCC(=N)N
→ .	>25.6
62: COc1cc(C2c3c(n[nH]c3C)C(=O)N2c2ccc(C)cc2)ccc1O (configuration not stated)
→ i	>57
63: O=C(O)c1cc2nc(-c3ccc(F)cc3)cc(C(F)(F)F)n2n1
→ i	.
64: CCn1c(CSc2nc(C)cc(C)n2)nnc1SCC(=O)Nc1ccccc1
→ i	>57
65: O=S(=O)(NCC(c1cccnc1)N1CCN(c2ccc(F)cc2)CC1)c1cccs1 (configuration not stated)
→ i	.
66: Cc1nc(N)sc1-c1csc(Nc2ccccn2)n1
→ i	.
67: Cc1cc(C)n(-c2nc(SCC(=O)Nc3nccs3)c3c4c(sc3n2)COC(C)(C)C4)n1
→ i	>57
68: CCOC(=O)c1cc2ccc(OC(=O)c3ccco3)cc2oc1=O
→ i	>57
69: Cc1ccc(-n2c(C)cc(C(=O)CSc3nncs3)c2C)cc1
→ i	i
70: Cc1cc(Nc2ccc(Br)cc2F)n2nc(C)nc2n1
→ i	.

(next part)
Every second line gives: YjeE inh	Bst PK mod
71: Cc1ccc(Nc2nc(C(=O)N3CCC(C(=O)NCCN4CCOCC4)CC3)cs2)cc1
→ i	>57
72: O=C(Cn1cccc1)Nc1ccc(F)cc1F
→ i	>57
73: COC(=O)Cc1c(C)nc2nc(-c3cccnc3)[nH]n2c1=O
→ i	>57
74: Cc1ccc(C(=O)Cn2c(NCCO)nc3ccccc32)cc1
→ i	>57
75: O=C(CSc1ccc(Cl)cc1)N1CCOCC1
→ i	>57
76: CCCCNC(=O)CSc1nccn1Cc1ccccc1
→ i	.
77: CNc1nc(Nc2ccc(C(C)=O)cc2)nc(OC(C(F)(F)F)C(F)(F)F)n1
→ i	.
78: CC(=O)c1cccc(NC(=O)COc2ccccc2)c1
→ i	>57
79: O=C1c2c(O)cc(O)cc2O[C@@H](c2ccc(O)c(O)c2)[C@H]1O
→ i	.
80: Cc1cc(C)n(-c2nc3ccccc3nc2Nc2ccc3[nH]c(=O)[nH]c3c2)n1
→ i	>57
81: Cn1cccc1C(=O)N1CCC[C@@]2(CCN(Cc3ccc(C#N)cc3)C2)C1
→ i	.
82: CCOC(=O)C1CCCN(CCC(=O)Nc2c(C(=O)OC)[nH]c3cc(OC)ccc23)C1 (configuration not stated)
→ i	>57
83: Cc1ccc(OCCn2nc3ccccc3n2)c(C)c1
→ i	>57
84: CN(C)C(=O)c1ccc(-c2cc(Nc3ccccc3)ncn2)cc1
→ i	.
85: Cc1cc2c(cc(C(=O)OCC(=O)NCc3cccs3)n2C(C)C)o1
→ i	>57
86: N#Cc1nc(COc2ccccc2F)oc1NCCc1ccccc1
→ i	i
87: CC(=O)c1cccc(NC(=O)c2cnn3ccccc23)c1
→ i	.
88: Cc1nc(CN2CCN(C(=O)NC3(c4ccccc4)CC3)CC2)cs1
→ i	>57
89: O=C(Nc1ccccc1)N1CC2(CCN(C(=O)c3cc(C(F)(F)F)cc(C(F)(F)F)c3)CC2)C1
→ i	.
90: COc1ccc(Cl)cc1NC(=O)CN(C1CCCCC1)S(C)(=O)=O
→ i	.
91: O=C(COC(=O)c1cccs1)NCc1ccccc1
→ i	>57
92: CCn1cc(/C=C(/C#N)S(=O)(=O)c2ccccc2)cn1
→ i	>57
93: Cc1ccc(S(=O)(=O)NCC(=O)NC2CCCCCC2)cc1
→ i	>57
94: Fc1ccc(CN2CCCCCCC2)cc1F
→ i	.
95: COc1cccc(NC(=O)Cn2cc3c(n2)CCCCC3)c1
→ i	.
96: Cc1nn2c(-c3ccccc3)c(-c3ccccc3)nc2[nH]c1=O
→ i	>57
97: CC(C)Cn1cnc2c1c(=O)n(CC(=O)Nc1ccc3c(c1)OCO3)c(=O)n2Cc1ccccc1
→ i	>57
98: CC(C)(C)c1csc(NC(=O)CSc2nc3ccccc3c(=O)[nH]2)n1
→ i	>57
99: COCON1C(=O)CN(C(C)=O)C1c1ccc(Cl)cc1Cl (configuration not stated)
→ i	>57
100: COc1ccc(NC(=O)NS(=O)(=O)c2ccc(C)cc2)c(OC)c1
→ i	>57
101: Cn1c(CN2CCC(C(N)=O)CC2)c(C#N)c2ccccc21
→ i	.
102: Cc1cc2c3c(c1)C1(C(=O)N3C(C)(C)CC2C)C(C#N)=C(N)Oc2n[nH]c(C)c21 (configuration not stated)
→ i	>57
103: COc1ccc(CNc2ccnc(-c3c(C)noc3C)n2)c(OC)c1
→ i	.
104: CC(c1ccco1)N(C(=O)COc1ccc(Cl)cc1Cl)c1ccccn1 (configuration not stated)
→ i	.
105: CS(=O)(=O)N1CCN(C(=O)C(Sc2ccccc2)c2ccccc2)CC1 (configuration not stated)
→ i	>57
106: CCOC(=O)C1CCCN(C(=O)C2CCN(S(=O)(=O)CC)CC2)C1 (configuration not stated)
→ i	>57
107: CN(C)c1ccc(C2N(c3ccc(Cl)cc3)C(=O)C3CCCN32)cc1 (configuration not stated)
→ i	.
108: COc1cc(OC)cc(-n2nnnc2SCC(=O)NCc2ccc3c(c2)OCO3)c1
→ i	>57
109: COc1ccc2[nH]c(C)c(C(=O)CN(C)C)c2c1
→ i	>57
110: O=C(CCCC(=O)N(CC(=O)NC1CCCCC1)Cc1ccc2c(c1)OCO2)Nc1ccccn1
→ i	>57
111: Nc1nc(Cn2nnc(-c3ccccc3F)n2)nc(N2CCOCC2)n1
→ i	>57
112: Cc1ccc(C(C#N)N2CCOCC2)cc1 (configuration not stated)
→ i	>57
113: COc1ccc(C(=O)N2CCCC(c3nc(-c4cc(OC)c(OC)c(OC)c4)no3)C2)cc1 (configuration not stated)
→ i	>57
114: O=C(O)CCSc1ccc2ccccc2n1
→ .	i
115: COC(=O)[C@@]1(Cc2ccc(F)cc2)[C@H]2c3cc(C(=O)N4CCCC4)n(Cc4ccc(C)c(F)c4F)c3C[C@H]2CN1C(=O)c1ccccc1
→ i	.
116: CCOC(=O)C1CCCN(C(=O)c2cc3nc(-c4cccc(OC)c4)cc(C(F)(F)F)n3n2)C1 (configuration not stated)
→ i	>57
117: Cc1csc2ncc(C(=O)Nc3ccccc3F)c(=O)n12
→ i	.
118: CS(=O)(=O)NCc1nnc(SCc2ccccc2C(F)(F)F)o1
→ i	>57
119: O=C(NCc1cccs1)c1cc2c(s1)CCCC2
→ i	>57
120: O=C(Nc1ccccc1)N1CC[C@@]2(CCCN(C(=O)c3cnccn3)C2)C1
→ i	.

Complete entries as entered above. Screens in order: YjeE inh	Bst PK mod
O=C(O)CCSc1ccc2ccccc2n1 is listed with .	i
CS(=O)(=O)NCc1nnc(SCc2ccccc2C(F)(F)F)o1 is listed with i	>57
Nc1nc(Cn2nnc(-c3ccccc3F)n2)nc(N2CCOCC2)n1 is listed with i	>57

(further entries)
Every second line gives: YjeE inh	Bst PK mod
121: COc1ccc(NC(=O)c2sc(SC)nc2N)cc1
→ i	.
122: O=C(CCN1C(=O)c2ccccc2C1=O)Nc1ccc(-c2nc3ccccc3o2)cc1
→ i	>11.4
123: CC(C)C(=O)Nc1cccc(NC(=O)c2cccnc2)c1
→ i	>57
124: CCn1nnnc1-c1ccc(OC)c(S(=O)(=O)Nc2ccc(C(=O)OC)cc2)c1
→ i	>57

A portion of the library; rates above refer to the full screens.
